# GIV-Gai inh – inhibitors of GIV GBA-motif binding to rat Galpha-i3. 210,000 tested, 0.42% active. percent of control (FP), % (no concentration beside the values). Galpha-i3/FITC-GIV peptide fluorescence polarization, 90 min; stronger effect = lower value; scaled: aluminum fluoride 0%, vehicle 100%. AID 1224905;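 active = replicate mean at 85% of control or lower, very high polarization wells dropped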;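 note: wells of about 15 µL received 100 nL stock; the first replicate is given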
# Target sequence (P08753 whole entry, looked up): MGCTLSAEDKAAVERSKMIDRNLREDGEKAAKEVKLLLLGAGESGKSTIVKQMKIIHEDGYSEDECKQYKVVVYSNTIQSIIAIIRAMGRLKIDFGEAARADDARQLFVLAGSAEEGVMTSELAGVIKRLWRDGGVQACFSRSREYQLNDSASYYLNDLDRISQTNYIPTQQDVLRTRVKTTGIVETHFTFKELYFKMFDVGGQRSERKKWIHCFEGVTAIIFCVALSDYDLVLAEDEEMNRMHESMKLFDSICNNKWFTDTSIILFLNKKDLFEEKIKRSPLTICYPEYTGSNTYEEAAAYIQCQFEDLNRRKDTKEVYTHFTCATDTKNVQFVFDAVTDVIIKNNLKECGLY
# Sa growth 42C – inhibitors of Staphylococcus aureus growth at 42 °C; 170,000 tested, 0.53% active; relative growth, % (concentration not given with the values); S. aureus RN4220 growth, OD600, 20 h; stronger effect = lower value;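 active = growth at 42 °C up to 50% and 20 or more points under that at 30 °C, or under 10% at both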;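 note: 300 nL library stock went into each well; scaled to the means of positive and negative controls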
# HCMV NEC inh – inhibitors of HCMV UL50-UL53 nuclear egress complex interaction; HTRF UL50-UL53 interaction, normalized percent inhibition; inhibition, % (test concentration not listed); 190,000 tested, 0.15% active;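 active = both replicates at 50% or more, plus weaker picks with an unusually low signal ratio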;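 note: stock transfer was 100 nL into about 20 µL; 0% = negative control wells and 100% = wells with untagged competitor protein; inactives centre near -12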
# Sa growth 42C second temp – also measured in Sa growth 42C; calls as there; relative growth, %; measured here: growth at 30 °C;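 optical density after 20 h as mean of two plates; 100% = untreated growth and lower means inhibition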
# Starred values were filed as active, the others as inactive; / = not tested or not shown; & = joins results of further samples.
compound	GIV-Gai inh	Sa growth 42C	Sa growth 42C second temp	HCMV NEC inh
Cc1ccc2nc(NCc3cccnc3)c(C=NCc3cccnc3)c(=O)n2c1	/	89	88	-50
Cc1ccc(CNC(=O)CC2=NS(=O)(=O)c3ccccc3N2)cc1	103&106	81	68	-32&8
Cc1cccc(NC(=O)N2CCC(CN3CCc4ccccc4C3)CC2)c1	98	122	86	/
C=CCn1c(N2CCC(C(=O)O)CC2)nc2ccccc21	105	/	/	0
C=CCNC(=O)CN1C(=O)c2cccnc2Sc2ccccc21	106	97	94	-4
COc1ccc(NC(=O)C2CCC(CNS(=O)(=O)c3cccc4nsnc34)CC2)cc1OC (configuration not stated)	103	99	90	-33
Cc1csc(N2C(=O)C=CC2=O)c1C(=O)c1ccccc1	104	75	95	-28
Cc1cc(-c2ccccc2)o[n+]1C	103	109	85	/
CC(=O)NC(C(=O)Nc1nc(-c2ccc(C)s2)cs1)C(C)C (configuration not stated)	/	93	99	8
O=C(CCC(=O)N1CCSc2ccccc21)N1CCN(c2ccccc2)CC1	110&101	103	102	-1&-53
O=C(CCN1CCCCC1)Nc1ccccc1	97	90	116	6
CCc1onc(C)c1C(=O)Nc1ccc(Br)cc1F	/	108	88	3
O=C(O)Cn1cccc1C(=O)c1ccccc1	101	88	92	-17
CC(=O)Nc1nnc(SCC(=O)N2C(C)CCCC2C)s1 (configuration not stated)	103	110	113	-1
Cc1ccc2nc(Nc3ccc(C)c(F)c3)c3nncn3c2c1	106	118	77	-5

# Retrieved by compound from the entries so far, six records:
compound	GIV-Gai inh	Sa growth 42C	Sa growth 42C second temp	HCMV NEC inh
Cc1cccc(NC(=O)N2CCC(CN3CCc4ccccc4C3)CC2)c1	98	122	86	/
O=C(CCN1CCCCC1)Nc1ccccc1	97	90	116	6
Cc1ccc2nc(Nc3ccc(C)c(F)c3)c3nncn3c2c1	106	118	77	-5
CCc1onc(C)c1C(=O)Nc1ccc(Br)cc1F	/	108	88	3
CC(=O)Nc1nnc(SCC(=O)N2C(C)CCCC2C)s1 (configuration not stated)	103	110	113	-1
Cc1cc(-c2ccccc2)o[n+]1C	103	109	85	/

# New compounds follow.
compound	GIV-Gai inh	Sa growth 42C	Sa growth 42C second temp	HCMV NEC inh
CCOC(=O)c1cc(C(=O)Nc2cc(Cl)ccc2OC)c(=O)[nH]c1C	101	/	/	17
O=C1Cc2cc(S(=O)(=O)NCc3ccccc3Cl)ccc2N1	103	84	79	-19
O=C(Nc1ccc2c(c1)OCO2)c1cn(-c2ccccc2)nc1-c1cccs1	/	90	85	-25
O=C1N=C(N2CCCCC2)S/C1=C/C1=Cc2ccccc2OC1	127	95	73	-76
O=C(O)c1cccc(Cn2c(Cl)c(/C=N/NC(=O)c3ccncc3)sc2=O)c1	/	86	87	-14
Cc1c(Cl)cccc1-n1c(SCC(=O)NCC2CCCO2)nc2n[nH]c(C)c2c1=N (configuration not stated)	109	101	97	3
O=C(Nc1nc2c(s1)CCc1ccccc1-2)c1ccc(S(=O)(=O)N2CCc3ccccc32)cc1	114	/	/	-3
CCc1ccc(S(=O)(=O)N2CCn3cccc3C2c2ccc(Cl)cc2)s1 (configuration not stated)	108	91	90	-49
CCN(CC)C(=O)Cn1nc(-c2ccc(Cl)cc2)c2ccccc2c1=O	108	80	70	-1
CCN1CCN(C(=O)CS(=O)Cc2nc(-c3ccc(OC)cc3)oc2C)CC1 (configuration not stated)	101	90	87	-20
CCOc1ccc(C(=O)OCc2cc(=O)n3cc(C)sc3n2)cc1	106	97	92	/
COCCCNc1nc2ccc(C)cc2n2nnnc12	161	92	82	-16
Cc1nn(-c2ccc(N3CCCC3)nn2)c(C)c1CCC(=O)Nc1ccc(F)cc1F	100	83	90	/
O=C(CSc1cn(CCNC(=O)c2c(F)cccc2F)c2ccccc12)Nc1ccc2c(c1)OCCO2	103	82	88	-26
O=C(Nc1cccc(F)c1)C1CCC(=O)N1S(=O)(=O)c1ccc(F)cc1 (configuration not stated)	105	/	/	13
CCOC(=O)c1ccc(N2C(=O)CC(N3CCN(C/C=C/c4ccccc4)CC3)C2=O)cc1 (configuration not stated)	105	101	88	-20
O=C(Oc1ccc2oc3c(c2c1)CCCC3)c1cccs1	101	86	88	-7
Cc1ccc(Cl)cc1N1CCN(C(=O)CCCCCn2c(=S)[nH]c3cc4c(cc3c2=O)OCO4)CC1	103	97	85	-21
CN(C)c1ccc(CNc2ccc3c(c2)ncn3-c2ccccc2)cc1	104	96	87	/
CC1=C(C#N)C(=O)N(CC(C)O)C(=O)/C1=C/c1ccc(-c2ccc(Cl)cc2)o1 (configuration not stated)	101	30	25	-27
CCOc1cc(/C=N\NC(=O)Cn2c(-c3nonc3N)nc3ccccc32)cc(I)c1OC	109	95	84	-12
O=C(NCc1ccc(Cl)cc1)c1ccc(Cl)c(-n2cnc3cccnc32)c1	103	/	/	2
CCC(Sc1nc2c(cc1C#N)CCCCC2)C(=O)Nc1cc(C)on1 (configuration not stated)	93	97	80	/
Cc1nnc(COC(=O)CNC(=O)c2ccc(C(F)(F)F)cc2)o1	/	98	84	-7
NC(=O)C1CCN(C(=O)/C(=C/c2ccco2)NC(=O)c2ccccc2)CC1	103	103	80	/
COc1ccc(-c2nc(CSCC(=O)N3CCN(c4ccccc4F)CC3)c(C)o2)cc1	102	92	50	0
Cc1cccc(NC(=O)Nc2ccc(C)c(C)c2)n1	105	108	90	-10
Cc1ccc2cc3cc(C(=O)Nc4cccc(Cl)c4)oc3nc2c1	104	105	103	8
O=c1oc2ccccc2c(NCc2ccc3c(c2)OCO3)c1CN1CCCC1	103	83	92	/
CCN1CCN(C(=O)c2cc(N(C)S(=O)(=O)c3ccccc3)ccn2)CC1	97	/	/	-33
CC(C)(C)NC(=O)Oc1noc2cc(Cl)ccc12	101	101	78	2
Cc1cc(C)cc(N2CC(c3nc4ccccc4n3C(C)C)CC2=O)c1 (configuration not stated)	102	95	76	-16
CC1=C(C(=O)OCc2ccccc2)C(c2cccc(Cl)c2Cl)CC(=O)N1 (configuration not stated)	106	117	98	-6
Cc1csc(=Nc2ccc(Cl)c(Cl)c2)n1CCCN1CCCC1=O	/	65	26	-12
C[N+](C)(C)[C@@H](Cc1c[nH]c(=S)[nH]1)C(=O)[O-]	95	94	101	-38
CCc1ccc(CNc2nc3ccccc3n2CCN(CC)CC)cc1	96	/	/	-14
COC(=O)c1cccc(NC(=O)C2=Cc3ccc(C)cc3OC=C2)c1	103	/	/	-21
COc1ccccc1Cn1cnc2c([nH]c3ccccc32)c1=O	102	/	/	-29
COc1cc(C(O)c2nccn2C)cc(OC)c1OC (configuration not stated)	99	88	89	-9
CC(CC(=O)NC1CCCCCC1)CC1=NS(=O)(=O)c2ccccc2N1 (configuration not stated)	106	95	83	/
CCCCn1c(CCNC(=O)C(C)C)nc2ccccc21	103	104	84	/
COC(=O)CSc1nnc(CNc2ccc(Cl)cc2)n1-c1ccc(OC)cc1	101	101	72	3
CC1=C(C(=O)OCC2CCCCC2)C(c2ccc(OCc3ccccc3)cc2)NC(=O)N1 (configuration not stated)	102	/	/	-14
Nc1nnc(SCC(=O)OCc2ccccc2)s1	/	87	92	-4
O=C(NCCc1ccccc1)C(=O)NCC(c1cccnc1)N1CCN(c2ccccc2)CC1 (configuration not stated)	106	97	83	-8
NC(=O)c1ccccc1NC(=O)c1ccc(S(=O)(=O)c2ccc(Br)cc2)nc1	103	/	/	-24
Cc1sc2ncnc(N(C)Cc3ccco3)c2c1C	/	94	98	0
COC(=O)c1ccc(NC(=O)Cn2nc(SC)n(N)c2=S)cc1	/	77	95	6
CCc1ccccc1NC(=O)N1CCOc2ccccc21	104	78	97	9
CCN(CC)C(=O)CCn1nc(-c2ccc(C)cc2)c2ccccc2c1=O	98	45	63	/
CCOC(=O)c1c(CSc2ccccc2)n(C)c2cc(Br)c(OCC(O)Cn3nc(C)cc3C)cc12 (configuration not stated)	92	/	/	-14
CN1C(=O)CC(NCc2ccc(S(N)(=O)=O)cc2)C1=O (configuration not stated)	102	98	74	1
COc1cc2c(cc1OC)C(c1ccccc1)N(C(=O)C(C)(C)C)CC2 (configuration not stated)	95	117	88	/
O=C(c1cc(-c2ccc(F)cc2)n[nH]1)N1CCN(c2cccc(Cl)c2)CC1	104	118	90	/
CN(C)c1ncc(C(=O)NCc2ccc(Cl)cc2)cn1	105&107	89	89	6
Cc1cc2[nH]c(=O)[nH]c2cc1S(=O)(=O)N1CCOCC1	102	103	88	-25
Cc1cc(C)c2c(-n3cccc3)nn(CC(=O)Nc3cccc(Cl)c3)c2n1	103	/	/	-33
CC(=O)Nc1cc(C(=O)NCc2ccc(C)cc2)ccc1S(=O)(=O)c1ccc(Cl)cc1	100	113	86	/
NS(=O)(=O)c1ccc(CCNC(=O)CCCn2ncn3c(cc4occc43)c2=O)cc1	103	104	95	4
CNC(=S)Nc1ccc(C(=O)OC)cc1	104	88	106	11

# Ordered by formula weight (low to high): some entries from above.
compound	GIV-Gai inh	Sa growth 42C	Sa growth 42C second temp	HCMV NEC inh
Cc1sc2ncnc(N(C)Cc3ccco3)c2c1C	/	94	98	0
COc1cc2c(cc1OC)C(c1ccccc1)N(C(=O)C(C)(C)C)CC2 (configuration not stated)	95	117	88	/
CC(=O)Nc1cc(C(=O)NCc2ccc(C)cc2)ccc1S(=O)(=O)c1ccc(Cl)cc1	100	113	86	/

# (listing goes on)
compound	GIV-Gai inh	Sa growth 42C	Sa growth 42C second temp	HCMV NEC inh
C=CCSc1nnc(Cc2cc(=O)[nH]c(=O)[nH]2)n1-c1ccc(OC)cc1	107	85	90	/
CC(=O)OCC(=O)Nc1cccc(C)c1	/	110	96	0
O=C(Nc1nc2ccccc2n1Cc1ccccc1Cl)c1ccccc1	106&105	/	/	-11&1
COc1ccc(Cl)cc1C(=O)Nc1cccc(-c2nc3cccnc3s2)c1	108	/	/	1
CN(C(=O)COC(=O)c1cncc(Br)c1)C1CCCCC1	/	101	91	-5
C=CCn1cc(C=C2C(=O)OC(c3ccccc3)OC2=O)c2ccccc21 (configuration not stated)	158	112	63	/
Cc1ccc(C(=O)NC(c2ccccc2)c2ccccc2)o1	/	98	102	-6
CCSc1nsc(NC(=O)Nc2cccc(F)c2)n1	101	-0.7*	-0.5*	21
Cc1nc(COc2cccc(Cl)c2)sc1-c1ccnn1C(=O)C1CC1	110	108	97	-22
Cc1ccc2c(c1)n([O-])c1c([n+]2=O)CCCC1	106	96	92	-42
CCS(=O)(=O)c1oc(-c2ccc(F)cc2)nc1S(=O)(=O)c1ccc(Br)cc1	105	85	37	-19
CCOC(=O)C1CCCN(C2CC(=O)N(c3cc(Cl)ccc3OC)C2=O)C1 (configuration not stated)	/	100	93	-10
CC1(C(=O)c2ccccc2)C2c3ccccc3OC(=O)C21C(=O)N1CCOCC1 (configuration not stated)	/	95	90	-5
CC(=O)c1ccc(NC(=O)c2ccc(-c3nc(CSc4ccccc4)c(C)o3)cc2)cc1	105	110	91	/
O=C(Nc1cccnc1)c1cc(-c2ccc(Br)cc2)nc2ccccc12	101	/	/	-2
Cc1ccc(-c2[nH]nc3c2C(c2ccccc2)C2=C(CC(C)(C)CC2=O)N3)cc1 (configuration not stated)	106	111	97	/
Cc1ccc(-n2nc(C)c(/C=N/NC(=O)Cc3nc4ccccc4n3C)c2Cl)cc1	/	99	96	-23
NC(=O)c1cc(S(=O)(=O)N2CCN(c3cccc(C(F)(F)F)c3)CC2)cs1	104	104	81	/
O=C(NCc1cccc(Br)c1)c1ccc(Cn2c(=O)c(=O)[nH]c3cccnc32)cc1	105	/	/	-16
COC(=O)c1sccc1NC(=O)NCC(c1ccc(OC)c(OC)c1)c1c[nH]c2ccccc12 (configuration not stated)	102	/	/	-6
CCOc1ccc(C(=O)N(CCC(=O)N2CCNCC2)Cc2cccc(Cl)c2)cc1	96	/	/	-21
CS(=O)(=O)N1CCCC1c1ccc(F)cc1 (configuration not stated)	98	/	/	-6
CN(C)CCNC(=S)Nc1ccc(F)c(Cl)c1	100	102	95	-2
Cc1c(C(=O)O)nnn1-c1ccc(F)cc1	95	/	/	-10
CC(C)c1ccc(Nc2nncc(=O)[nH]2)cc1	100	/	/	-17
O=C(Nc1ccc(F)cc1)C1CC(=O)N(CCc2c[nH]c3ccc(F)cc23)C1 (configuration not stated)	103	/	/	8
COC(=O)c1c(C)[nH]c(C)c1/C=C(\C#N)S(=O)(=O)c1ccc(C)cc1	96	108	92	8
CSc1nc2c(C)c(C)c(C)c(C)c2[nH]1	94	101	80	-14
N#C/C(=C\C1=C(N2CCOCC2)C(=C\c2ccccc2)/CC1)c1nnc2n1CCCCC2	/	97	64	-112
CC(C1CC1)N(CC(F)(F)F)C(=O)c1cc(S(=O)(=O)N(C)C)ccc1N1CCCC1 (configuration not stated)	/	86	95	-5
CCn1nc(C)c2c1c(=O)n(Cc1ccccc1)c(=O)n2CC(=O)N1CCCCC1C (configuration not stated)	102	/	/	7
